Assay outcomes from PubChem BioAssay.
NPYLR7 ag = mosquito NPYLR7 agonism; HEK293T NPYLR7/Galpha15, GCaMP6s calcium fluorescence; activation, % at 10 µM; 0.15% of 270,000 active; in the data active = activation above about 40%;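 note: 0% = vehicle and 100% = reference agonist at the receptor; some compounds past the cut are filed as inactive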
NPYLR7 ag max-min = second read-out of NPYLR7 ag, no call of its own (marks repeat the call); activation, %; measured here: Max-Min RFU normalised activation; some inactives read as strong as hits;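 span of the calcium signal over five minutes; 0% = vehicle and 100% = native peptide agonist; compound fluorescence can raise it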
Numbers without * were called inactive; & = joins results of further samples. Only part of the results is shown; rates above refer to the full screens.

compound | NPYLR7 ag | NPYLR7 ag max-min
COc1cccc(C2c3cccn3CCCN2Cc2ccc(F)c(Cl)c2)c1OC (stereo not given) | 2.4 | 15.9
CCOc1ccc(CN(CCN2CCOCC2)Cc2nc(C(=O)O)co2)cc1 | 8.4 | 12.4
COC(=O)c1ccc(C(=O)N(CCCN(C)C)c2nc3c(C)c(C)ccc3s2)cc1 | 1.9 | 1.0
Nc1cc(S(=O)(=O)Nc2ccc(Cl)cc2)ccc1Cl | 0.5 | 2.9
CCC(CC)C(=O)N(C)c1c(C)nc2ccc(C(=O)N(C)Cc3ccco3)cn12 | 16.4 | 9.2
COC(=O)c1ccc2c(c1)C1CC(C)(O2)N(c2ccc(C)cc2)C(=O)N1 (stereo not given) | -0.2 | 3.8
CC(C)c1noc(C(C)N2CCCC(C(=O)N3CCCCCC3)C2)n1 (stereo not given) | 3.2 | 2.5
Cc1ccc(-c2nnc3ccc(SCC(=O)N4CCCC4)nn23)cc1 | 10.1 | 16.0
OCc1ccc(-c2c(-c3ccccc3)ncn2Cc2ccc3c(c2)OCO3)o1 | -3.2 | -7.3
CC(C)(C)C(=O)N1CCN(C(C(=O)NCc2ccncc2)C2CCCC2)CC1 (stereo not given) | -3.3 | -0.9
CC1=CC(=O)C2C3C=CC(C3)C2C1=O (stereo not given) | 3.5 | -0.6
CCOCCn1c(=NC(=O)c2ccccc2S(C)(=O)=O)sc2cc(F)cc(F)c21 | -1.6 | -3.1
COc1ccc(CN(C)C(C)C(=O)Nc2ccccc2C(F)(F)F)c(OC)c1 (stereo not given) | 2.0 | -0.8
C=CCCC(O)(CCC=C)c1ccc(CN(CCCOC)Cc2ccccc2OC)o1 | 5.4 | 12.8
c1ccc(CCC2CCCNC2)cc1 (stereo not given) | 4.8 | 0.5
Cc1cc(C)c(S(=O)(=O)NCCCN2CCOCC2)cc1Br | 13.1 | 15.6
Cc1cc(-c2ccccc2)[n+]2oc(C)cc2n1 | -1.2 | 37.4
CSc1ccc(NC(=O)c2sc(C)nc2C)nn1 | -5.8 | -5.2
CCOC(=O)c1ccc(N=C2SC(C(=O)Nc3ccccc3Cl)CC(=O)N2C)cc1 (stereo not given) | 2.1 | 0.5
C=CCN(CC(=O)N(Cc1cccn1C)CC(C)C)C(=O)c1cc(C(F)(F)F)cc(C(F)(F)F)c1 | -6.4 | -6.7
CCCCOc1ccc(C(=O)N2CCC[C@@H]2C(=O)NCCCNC(=O)c2ccccc2)cc1 | 16.0 | 12.4
COc1cc(CC(=O)N2CCOC(c3ccccc3)C2)cc(OC)c1OC (stereo not given) | 3.1 | 1.8
Cc1ccccc1-n1c(SCc2nc(C(=O)NCCc3ccc(Cl)cc3Cl)cs2)nnc1-c1cccnc1 | -0.8 | 11.4
CS(=O)(=O)CCNC(=O)c1conc1-c1ccc(Cl)cc1 | 6.6 | 3.0

Structures listed so far with two or more sulfur atoms (3):
compound | NPYLR7 ag | NPYLR7 ag max-min
CCOCCn1c(=NC(=O)c2ccccc2S(C)(=O)=O)sc2cc(F)cc(F)c21 | -1.6 | -3.1
CSc1ccc(NC(=O)c2sc(C)nc2C)nn1 | -5.8 | -5.2
Cc1ccccc1-n1c(SCc2nc(C(=O)NCCc3ccc(Cl)cc3Cl)cs2)nnc1-c1cccnc1 | -0.8 | 11.4

(continued)
compound | NPYLR7 ag | NPYLR7 ag max-min
CC(C)CC(NC1CCSCC1)c1cccnc1 (stereo not given) | 12.9 | 5.3
Cc1c(C)n2c3c(=O)n(Cc4ccccc4)c(=O)n(C)c3nc2n1CC1CCCO1 (stereo not given) | 4.0 | 4.2
Cc1nn(C)c(Cl)c1C(=O)Nc1ccc(C(=O)N(C)C)cc1 | -3.4 | -3.0
COCCNC(=O)NC(=O)COC(=O)c1cc(Br)c(Br)s1 | -1.0 | -1.9
COC(=O)c1cccc(COC(=O)c2[nH]c(C)c(C(C)=O)c2C)c1 | 2.5 | 8.7
O=C(NNC(=O)c1ccccc1C(F)(F)F)c1ccc(=O)n(Cc2ccccc2)c1 | -13.4 | -18.4
C#CCN(C)C(=O)c1ccc(-c2ccc(OC)c(OC)c2OC)s1 | 19.5 | 23.2
N#Cc1c(CCCN)nn(-c2ccc(F)cc2)c1N | -1.7 | 0.0
Cc1cnc(C(=O)Nc2ccccc2OC(F)F)cn1 | 8.2 | 4.6
Cn1nc(CC2CCN(C(=O)c3ccncn3)CC2)n(-c2ccccc2)c1=O | 2.4 | 2.5
CSc1ccc(COc2coc(CN3CCN(C(=O)c4ccc(Cl)nc4)CC3)cc2=O)cc1 | 0.7 | 3.5
O=C(NC1CCN(c2ccccc2C(=O)N2CCN(c3ccc(Cl)cc3)CC2)CC1)C1CCCCC1 | -0.6 | 0.5

Compounds above containing a thiophene ring, fused or not:
compound | NPYLR7 ag | NPYLR7 ag max-min
COCCNC(=O)NC(=O)COC(=O)c1cc(Br)c(Br)s1 | -1.0 | -1.9
C#CCN(C)C(=O)c1ccc(-c2ccc(OC)c(OC)c2OC)s1 | 19.5 | 23.2

Other results follow.
compound | NPYLR7 ag | NPYLR7 ag max-min
CC(=O)c1sc(NC(=O)c2ccc(=O)[nH]c2)nc1C | -1.8 | -4.0
CCOC(=O)C1CCCN(Cc2cn(C)nc2-c2ccc3c(c2)OCCO3)C1 (stereo not given) | -0.4 | -3.5
CCOC(=O)C1=C(C)N=c2s/c(=C\c3cccc(O)c3)c(=O)n2C1c1ccc2c(c1)OCO2 (stereo not given) | -1.8 | -2.5
Cc1ccc(CN2CCC(CNC(=O)c3cccc(N)c3)C2)cc1C (stereo not given) | -2.3 | -2.4
CCOC(=O)C1=C(CC)NC2=C(C(=O)CCC2)C1c1ccc(N(CC)CC)cc1 (stereo not given) | 1.3 | -1.1
Cc1ncc(-c2ccc(NC(=O)C(c3ccccc3)N(C)C)cc2)o1 (stereo not given) | 5.7 | 5.3
CCCOC1CCCN(C(=O)c2ccc(Cl)cc2Cl)C1 (stereo not given) | -4.7 | 1.7
CC(=O)NC(C(=O)Nc1ccc2c(c1)-c1ccccc1C2)C(C)C (stereo not given) | -3.0 | -3.3
Cc1cccc(NC(=O)C(C)N2CCC(C(=O)N(C)C)CC2)c1 (stereo not given) | -0.5 | -2.0
COCCOC(=O)c1c(NC(=O)CCl)sc(C(N)=O)c1C | -2.5 | -6.3
CNc1nc2cnc(Nc3cc(C(F)(F)F)ccc3F)cc2n1CCOC | 9.2 | -4.3
OC(Cc1ccccc1)c1ccc2c(c1)CN(Cc1ccc3ccccc3n1)CCO2 (stereo not given) | 21.0 | 3.2

Sorted by length of the SMILES (descending): some entries from above
compound | NPYLR7 ag | NPYLR7 ag max-min
CCOC(=O)C1=C(CC)NC2=C(C(=O)CCC2)C1c1ccc(N(CC)CC)cc1 (stereo not given) | 1.3 | -1.1
OC(Cc1ccccc1)c1ccc2c(c1)CN(Cc1ccc3ccccc3n1)CCO2 (stereo not given) | 21.0 | 3.2
Cc1ccc(CN2CCC(CNC(=O)c3cccc(N)c3)C2)cc1C (stereo not given) | -2.3 | -2.4

Later entries
compound | NPYLR7 ag | NPYLR7 ag max-min
CCCn1c(SCC(=O)NC2CCCCNC2=O)nc2cc(Cl)ccc21 (stereo not given) | 11.8 | 9.7
Cc1cccn2c(=O)nc(SCC(=O)NCCc3ccccc3)nc12 | 5.3 | 3.1
CC(C)Cc1nc(C(=O)N2CCN(C3CCCC3O)CC2)cs1 (stereo not given) | 7.3 | 3.4
CC(=O)Nc1cnn(-c2ccc(C(=O)N3CCC(Sc4ccc(F)cc4)CC3)cc2)c1 | 16.4 | 4.8
COCCN(CC(=O)Nc1cccc(C)c1C)CC(=O)N1CCSc2ccccc21 | 6.6 | 3.8
CCc1nnc(NC(=O)C2(c3ccccc3)CC2)s1 | 7.1 | 5.4
CCC1CCCCN1C(=O)c1cccc(C#N)c1 (stereo not given) | 3.4 | 1.1
COc1ccc(C2=[N+]([O-])C(C)(c3cccc([N+](=O)[O-])c3)N(O)C2C)cc1 (stereo not given) | -10.4 | -15.8
Cc1ccc(N2CCN(Cc3nc(C(c4ccccc4)c4ccccc4)no3)C(C)C2)cc1 (stereo not given) | 3.3 | 2.2
CCOC(=NCC1CCCO1)NC(=O)c1cccs1 (stereo not given) | -6.7 | 5.6
O=C(Cc1ccc(Oc2nc(Cc3ccccc3)ns2)cc1)NCCC(c1ccccc1)c1ccccc1 | 11.8 | 13.4
CC(C)Cn1c(N)c(C(=O)CSc2ncnc3sc4c(c23)CCC4)c(=O)n(C)c1=O | 6.0 | 12.5
COCCN(Cc1cccs1)C(=O)c1nc2ccccc2[nH]c1=O | -0.2 | -3.0
COc1ccc(N2C(=O)C3C4C=CC(C4=C4CCCC4)C3C2=O)cc1 (stereo not given) | 17.8 | 10.2
CC(C)(C)NC(=O)CNc1ccc([N+](=O)[O-])cc1Cl | -1.5 | -1.4
Cn1cc(Br)cc(NC(=O)c2sccc2C#N)c1=O | -5.6 | -12.0
Cc1cccc(NC(=O)CSc2nc(=O)n(CCCN3CCOCC3)c3c2CCC3)c1C | -2.0 | -5.5
Cc1cc(NC(=O)c2cc(CC(C)C)on2)no1 | -2.9 | -0.5
O=C(NNc1ncnc2c1cnn2-c1ccccc1)c1cccc([N+](=O)[O-])c1 | 0.1 | -0.6
CS(=O)(=O)NC(c1cccc(Cl)c1)c1ccccn1 (stereo not given) | -29.8 | -28.9
O=C1COC(=O)C1C(c1ccccc1N1CCN(Cc2ccccc2)CC1)C1C(=O)COC1=O (stereo not given) | -1.5 | -3.7
O=C(O)CCC(=O)N1N=C(c2ccc(Br)cc2)CC1c1ccccc1 (stereo not given) | 0.1 | -0.7
CSCCNC(=O)C1(C)CCN1C(=O)C/C=C/c1ccccc1 (stereo not given) | 22.6 | 26.1
Cn1nc(C(F)(F)F)cc1-c1ccc(C(=O)O)s1 | 0.7 | -2.5
Cc1ccc(NC(=O)CN(CCO)Cc2cccnc2)cc1Cl | 3.4 | -0.3
CCCCc1c(C)nc(N)[nH]c1=O | 1.4 | 7.8
CCOC(=O)CC(=O)N1CCN(CC(OCc2c(F)cccc2F)c2ccc(Cl)cc2)CC1 (stereo not given) | -3.8 | 1.5
O=c1n(CCCN2CCN(c3cccc(Cl)c3)CC2)nc2ccccn12 | -4.7&-9.9&1.9&4.7 | -5.3&-15.3&-3.9&-25.8
C[n+]1ccc(C=CC(=O)c2ccc3cccc4c3c2CC4)cc1 | 2.3 | 1.2
c1ccc(CNc2cc(-c3n[nH]c4ccccc34)c3cc[nH]c3n2)nc1 | 5.5 | 4.3
O=C1c2ccccc2S(=O)(=O)N1CCCN1CCN(c2ncccn2)CC1 | 3.2&-14.6 | 0.9&-28.4
CCOc1ccccc1N=c1scc(-c2ccc(Cl)s2)n1CCOC | -0.4 | -2.5
CC(C)SCCNS(=O)(=O)c1sc2c(c1C(=O)O)CCNC2 | 6.5 | 5.7
COc1ccccc1NC(=O)Cn1nc(-c2ccccc2)c2sc(C)nc2c1=O | 13.8 | 14.2
CCc1nc2n(n1)C(=O)C(C(c1ccc(C(F)(F)F)cc1)N1CCOCC1)S2 (stereo not given) | -2.5 | -7.2
COc1cc(-c2cc(C(=O)NC(C)C(C)C)c3ccccc3n2)cc(OC)c1OC (stereo not given) | -5.4 | -8.3
COCc1nc(C)nc(N2CCN(C(=O)N(C)C)CC2)c1Cc1c(F)cccc1Cl | -1.6 | 5.5
CN(Cc1cnc(N)nc1)Cc1cccc2cnccc12 | 11.7 | 8.2
CN(Cc1ccccc1)c1cc(C(C)(C)C)nc(SCc2ccc(C(=O)N3CCCC3)o2)n1 | 9.5 | 8.0
Cn1nc(C(C)(C)C)cc1C(=O)N1CCCCC1c1cc(C(=O)Nc2cccc(C#N)c2)no1 (stereo not given) | 0.9 | -1.4
Cc1nn(C)c(C)c1CC(=O)NCc1ccc(N(C)C)c(F)c1 | 4.7 | 2.0
O=C(Nc1nc(CN2CCCCC2)cs1)C1=Cc2ccccc2OC1 | 3.7 | -0.1
Cc1[nH]ncc1NS(=O)(=O)c1cc(C(F)(F)F)cc(C(F)(F)F)c1 | -5.1 | -5.2
CCOc1ccc(Cc2nnc(Nc3cccc(C)c3C)[nH]c2=O)cc1 | 3.1 | 0.7
NC(=O)c1cnc2n1CCN(C(=O)c1ccc3c(c1)CCO3)C2 | 6.6 | 5.7
CCOC(=O)c1ccc(CNC(=O)c2ccc3oc(C(C)C)nc3c2)o1 | 5.9 | 1.8
Cc1nn(C)cc1CN1CCC(c2cccc(F)c2)Sc2ccccc21 (stereo not given) | 14.1 | 1.6
O=C1C2CC=CCC2C(=O)N1CN1CCc2sccc2C1c1cccs1 (stereo not given) | 3.0 | 8.7
Cc1cccnc1CN1CCN(Cc2nc[nH]c2C)CC1 | -3.0 | -1.4
O=C(Nc1ccc(-n2cccn2)nc1)C1CC(c2cccc(F)c2)=NO1 (stereo not given) | 4.9 | 6.1
COc1ccc(N2C(=O)/C(=C\c3cccnc3)SC2=S)cc1 | -3.1 | -8.5
CCCN1CSC(=S)N(CCC)C1 | 17.2 | 11.3
O=C(c1ccco1)N1CCCN(Cc2cc(C#CCO)cs2)CC1 | 9.3 | -2.6
CCC1CCCCN1C(=O)c1sc2nc(-c3cccc([N+](=O)[O-])c3)cn2c1C (stereo not given) | 0.7 | -3.9
N#CCCN(CC1CCCO1)C(=O)Cc1c(F)cccc1F (stereo not given) | 15.2 | 7.6
CCCCNC(=O)c1ccc2nc(CC)c(N(CCC(C)C)CCN(C)C)n2c1 | 1.6 | -9.6
Cc1nnc(SCc2cccc(C(=O)Nc3ccc(I)cc3C)c2)s1 | 13.8 | 9.5
CCCc1cc(=O)[nH]c2nnc(SCC(=O)NC)n12 | -12.3 | -8.4
COc1ccc(N2CC(NC(=O)NCc3ccc4[nH]c(C)cc4c3)CC2=O)cc1 (stereo not given) | -0.9 | -2.8
Cc1ccc(-c2nc(-c3ccc(Br)o3)no2)cc1 | 1.0 | -1.3
COc1nc(-c2ccco2)n(-c2ccc(NS(=O)(=O)c3ccc(F)cc3)cc2)n1 | 15.2 | 27.6
CC(C)C(=O)NC1CCN(C(=O)c2c(F)cccc2Cl)CC1 | -30.8 | -29.5
O=C(Nc1ccccc1[N+](=O)[O-])c1cccn(OCc2ccccc2)c1=O | 12.8 | 13.1
